Bioassay records as filed in PubChem BioAssay.
MLL AF4-AF9 inh – inhibitors of human MLL-AF4/AF9 interaction; P42568; AlphaScreen, biotin-AF4 peptide binding to FLAG-AF9; inhibition, % at 10 µM; 350,000 compounds, 0.47% hits;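 active = every replicate reaching a set inhibition limit, whatever the replicate mean, cut at about 25% in these data; inconclusive = mean inhibition reaches that limit but some replicates miss it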;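 note: 0% = plate neutral control median and 100% = total signal loss; the record names both 10 and 1 µM as test concentration; the first replicate is given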
Target sequence (P42568 whole entry, looked up): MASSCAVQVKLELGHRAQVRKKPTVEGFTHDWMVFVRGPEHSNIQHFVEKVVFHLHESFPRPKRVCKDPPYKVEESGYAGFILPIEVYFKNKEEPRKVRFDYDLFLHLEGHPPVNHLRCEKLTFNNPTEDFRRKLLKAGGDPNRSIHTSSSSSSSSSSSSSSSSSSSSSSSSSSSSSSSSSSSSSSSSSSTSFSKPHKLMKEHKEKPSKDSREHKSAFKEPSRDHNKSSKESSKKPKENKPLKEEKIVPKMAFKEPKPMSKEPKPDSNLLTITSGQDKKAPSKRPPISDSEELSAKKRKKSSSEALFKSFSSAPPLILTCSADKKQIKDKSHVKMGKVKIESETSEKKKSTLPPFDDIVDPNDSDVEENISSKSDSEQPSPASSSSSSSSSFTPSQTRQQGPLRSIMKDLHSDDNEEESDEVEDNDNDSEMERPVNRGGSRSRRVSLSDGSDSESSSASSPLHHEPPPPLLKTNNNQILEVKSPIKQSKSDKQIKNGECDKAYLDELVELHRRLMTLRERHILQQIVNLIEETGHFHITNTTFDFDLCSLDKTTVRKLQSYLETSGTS
Vif A3G – HIV-1 Vif–A3G interaction blockers – biochemical, TR-FRET, GST-Vif 1-94, biotin-A3G peptide, dose response retest, primary screen (AID 1117319). TR-FRET GST-Vif / biotin-A3G peptide binding; higher % means a stronger effect; test concentration not given here; strong numbers were not always called active. 260,000 compounds, 0.57% hits. inhibition, %, or IC50 in µM where a hit was titrated;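 active = above the screen mean plus three standard deviations and confirmed in dose response; inconclusive = results disagree or hit not tested in dose response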;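 note: Vif residues 1-94 fused to GST binding biotinylated APOBEC3G peptide 110-148; 0% = full assay without inhibitor and 100% = GST in place of GST-Vif; retest series ran down from 100 µM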
Starred values were filed as active, the others as inactive; ? = inconclusive; & = joins results of further samples.

SMILES	MLL AF4-AF9 inh	Vif A3G
C[C@H]1CN([C@@H](C)CO)C(=O)Cc2cc(NC(=O)Cc3cn(C)c4ccccc34)ccc2O[C@@H]1CN(C)S(=O)(=O)c1cn(C)cn1	0.8	3%
S=C(c1cccs1)N1CCN(c2ccccc2)CC1	?	-10%
N=C(N)SCc1ccc(Cl)c2ccccc12	9.9	-2%
O=C1C=CC(=O)N1CCCCCCCCCCN1C(=O)C=CC1=O	-1.5	-1%
COc1ccccc1N1CCN(C(=O)CN(C)S(=O)(=O)c2ccc(C)cc2)CC1	-2.2	3%
CC(=O)c1ccc(-c2ccc(-c3cc(=O)oc4c(C(C)C)ccc(C)c34)cc2)cc1	5.0	2%
OC(COCc1ccccc1)COCc1ccccc1	-1.2	13%
CN(C(=O)c1ccc(NC(=O)Cc2ccc(NC(=O)C3CCCN(S(=O)(=O)c4cccc([N+](=O)[O-])c4)C3)cc2)cc1)C1CCCC1 (centres undefined)	-1.6	0%
COc1ccc(S(=O)(=O)N(C)[C@H]2C[C@H]3c4cc(N5CCN(C)CC5)ccc4CCN3C(=O)[C@H]2[C@H](C)O)cc1	-0.6	-2%
O=C1CCCCC1C1(O)C(=O)Nc2ccccc21 (centres undefined)	-0.2	-9%
O=C(O)c1ccc(NN=Cc2cc(=O)[nH]c(=O)[nH]2)cc1	-4.3	-4%
CNc1ncnc(NC)c1[N+](=O)[O-]	2.8	0%
CN(C)c1ccc(C=c2c3ccccc3n3c2c2c([n+]3C)CCCC2)cc1	37*	27%
c1ccc(CN=C(NCc2ccccc2)NCc2ccccc2)cc1	1.4	-5%
CSc1ccc(/C=C/C(=O)OCC(=O)NC2CCCCCC2)cc1	1.2	-5%
CC(C)c1ccc(CN(C)C(=O)c2ccc(S(=O)(=O)NCc3ccco3)cc2)cc1	-2.3	1%
O=C(NCc1cccs1)c1ccc(CS(=O)Cc2ccc(Cl)cc2)o1 (centres undefined)	-3.8	3%
O=C(OCc1cc([N+](=O)[O-])cc2c1OCOC2)c1cccnc1SC(F)F	-0.5	-6%
CCN(C1CCS(=O)(=O)C1)S(=O)(=O)c1ccc(Cl)s1 (centres undefined)	-0.4	-2%
O=C(Cn1ncc2ccccc2c1=O)Nc1cccc(C(F)(F)F)c1	-1.3	-5%
COc1cccc(NC(=O)N(C)C[C@@H]2OCc3cn(nn3)CCCC(=O)N([C@H](C)CO)C[C@H]2C)c1	-0.6&2.3&-0.6	-4%
CC(C)N(C(=O)[C@H]1C[C@H](CC(=O)NCc2ccco2)C(=O)N2CCc3c([nH]c4ccc(Cl)cc34)[C@]12C)C(C)C	12	0%
CN(C)c1nc2c(N)ncnc2n1C1OC(CO)C(O)C1O (centres undefined)	2.1	-5%
NC(=O)c1cnccc1C=Cc1ccccc1	0.0	7%
O=C(O)C1OCC2(CO1)COC(C(=O)O)OC2 (centres undefined)	-0.4	2%
CCOC(=O)C(=O)Cc1nc(OCc2ccccc2)cc(OCc2ccccc2)n1	-4.5	-13%
COCCCn1c(=O)/c(=C/c2ccccc2OC(F)F)s/c1=C(\C#N)C(=O)NCCOC	-2.6	-2%
COC1CCN(C(=O)c2cc(COc3cc(C)ccc3C)on2)CC1	-0.4	-5%
COc1cc(NC(=O)COc2cc(C)cc3oc(=O)cc(C)c23)cc(OC)c1OC	-1.1	3%
COCCCN1C(=O)C(CC(=O)NCCc2ccccn2)CC(C(=O)N2CCOCC2)=C1C (centres undefined)	-0.4	0%
O=C(NC1CCCCCC1)c1ccc([N+](=O)[O-])s1	-49	8%
CC(C)[C@H](NS(=O)(=O)c1ccccc1)C(=O)OCc1cc([N+](=O)[O-])cc2c1OCOC2	-4.3	-3%
CC(C)OC(=O)c1ccc(NCc2cc(O)ccc2O)cc1Cl	15	0%
CC(=O)Nc1cccc(C(=O)OCC(=O)N(c2ccccc2)C2CCS(=O)(=O)C2)c1 (centres undefined)	0.5	4%
CCOC(=O)c1ccc(NC(=O)c2nc[nH]c2C(=O)NC[C@@H](C)O)cc1	-0.6	0%
O=C1NC(=O)C2(CCCCC2)N1	0.8	-5%
O=C(Nc1ncccc1O)c1ccc(S(=O)(=O)NCc2ccco2)cc1	-7.3	12%
O=C(O)C1C2OC3C(OC(=O)C31)C2Br (centres undefined)	-3.2	-5%
CC(C(=O)Nc1ccc2c(c1)OCCO2)N(C)CC(=O)Nc1ccccc1Br (centres undefined)	0.8	-2%
Cc1ccc(S(=O)(=O)N(C)C[C@@H]2OCc3cnnn3CCCC(=O)N([C@@H](C)CO)C[C@H]2C)cc1	-0.7&1.0&-0.2	3%
Cn1ncc2c(NCCc3ccccc3)nc(Cl)nc21	-13	-4%
c1ccc(-c2cc(-c3cc(-c4ccccc4)on3)no2)cc1	1.1	-3%
c1ccc(CC(Cc2ccccc2)c2ccccn2)cc1	-3.5	0%
COc1cc2ccc(-c3ccc4ccccc4n3)cc2cc1OC	-3.7	-12%
CNC(=O)C[C@H]1C(=O)N(CCc2ccccc2)C[C@@H]1C	-3.0	4%
N#Cc1ccccc1OCC(=O)Nc1ccc(N2CCOCC2)cc1N1CCOCC1	-0.5	5%
COC(=O)[C@@]1(Cc2ccccc2)[C@H]2C(=O)N(Cc3ccccc3)C(=O)[C@H]2[C@H]2CN=C(SCC3CC3)N21	-4.2	-1%
COc1ccc([C@H]2N[C@]3(CCCN(Cc4ccc(Br)cc4)C3=O)[C@H]3C(=O)N(Cc4ccccc4)C(=O)[C@@H]23)cc1	3.0	0%
Cc1ccc(SC2=C(N(C)C)C(=O)c3ccccc3C2=O)cc1	12	12%
CC1CCc2[nH]c3ccc(C(=O)NCC4CCCO4)cc3c2C1 (centres undefined)	10	-8%
CCCN(CC(=O)Nc1ccccc1C)C(=O)C1CC(=O)N(c2ccccc2OCC)C1 (centres undefined)	4.3	-1%
CC(=O)c1c(C)[nH]c(C(=O)CSc2nnc(NC3CC3)s2)c1C	-1.5	2%
O=C1c2cc([N+](=O)[O-])ccc2-c2cc(Br)c(N=C(NO)C(F)(F)F)cc21	-4.1	-7%
COc1ccc(C)cc1NC(=O)C(c1ccccc1)N1CCN(CC(=O)N2CCCC2)CC1 (centres undefined)	3.4	-7%
COCC(=O)Nc1ccc(S(=O)(=O)Nc2onc(C)c2C)cc1	-3.0	-5%
CCSCCCn1[nH]c2ccccc2c1=O	0.8	-6%
COc1ccc(/C=C(\NC(=O)c2ccc(Cl)cc2)C(=O)NCc2cccnc2)cc1OC	0.3	2%
CC(C)NC(=O)c1cccc(NC(=O)CC2SC(N3CCCCC3)=NC2=O)c1 (centres undefined)	-13	1%
CC[C@@H]1C=C(C(=O)O)[C@H](c2cccc(C)c2)N1S(=O)(=O)c1ccc(C)cc1	-1.4	-1%
O=C(C[C@H]1C[C@H](C(=O)N2CCOCC2)[C@@]2(CCC3CCCC3)c3[nH]c4cc(-c5ccco5)ccc4c3CCN2C1=O)NCCc1ccccn1	4.6	-2%

Later entries:
SMILES	MLL AF4-AF9 inh	Vif A3G
O=C(NN=Cc1ccc([N+](=O)[O-])cc1)c1ccncc1	-1.0	-3%
COc1ccc(CN2C(=O)C(CC(=O)NCCc3ccccn3)CC(C(=O)N(C(C)C)C(C)C)=C2C)cc1 (centres undefined)	-0.8	0%
CCOC(=O)N1CCC2(CC1)NC(=O)c1ccccc1N2	-0.6	-2%
CC(=O)OCC(=O)C1(O)CCC2C3CC(F)C4=CC(=O)CCC4(C)C3C(=O)CC21C (centres undefined)	-0.2	-6%
O=C(CCNC(=O)c1ccco1)NNC(=O)c1ccc(Br)cc1	-0.4	-2%
O=C(C[C@H]1C(=O)N(CCc2ccccc2)C[C@@H]1c1ccccc1)Nc1ccccc1	0.3	-1%
COc1ccc(C(=O)C=Cc2ccc(OCc3ccccc3)c(OC)c2)cc1OC	3.8	-2%
O=C(Nc1cc(S(=O)(=O)N2CCCCC2)ccc1N1CCOCC1)c1ccc(F)cc1	2.2	2%
CCN1C[C@@H]2[C@@H]3C(=O)N(Cc4ccccc4)C(=O)[C@@H]3[C@](Cc3ccccc3)(C(=O)OC)N2C1=NC	3.6	-8%
CC1CCCC(NC(=O)CCN2C(=O)COc3ccccc32)C1C (centres undefined)	-7.2	-1%
CN(C(=O)c1ccccc1)C(=O)c1ccccc1	-0.5	12%
COc1ncnc2c1ncn2CCCNCc1ccccc1	-2.9	-3%
CCOC(=O)N1CCN(CC(=O)NC(=O)Nc2ccc3c(c2)OCCO3)CC1	-1.3	-8%
CCCc1c(C(=O)N/N=C/c2ccc3c(c2)OCO3)nnn1-c1nonc1N	0.0	3%
Cc1ccc([C@@H]2C[C@H]3[C@@H](CN2S(=O)(=O)c2ccc(Cl)cc2)C(=O)C[C@@H](c2cccc4ccccc24)N3S(=O)(=O)c2ccc(C)cc2)cc1	0.7	-3%
COc1ccc(Cl)cc1NC(=O)NNC(=O)C(=O)Nc1ccc(F)cc1	-1.2	-7%
C[C@@H]1CN([C@H](C)CO)C(=O)CCCn2nncc2CO[C@@H]1CN(C)S(=O)(=O)c1cccs1	-3.0&-2.7	-2%
CC(CC(=O)c1ccccc1)=NCC(O)CN=C(C)CC(=O)c1ccccc1 (centres undefined)	-1.9	-3%
Cn1c(=O)c2[nH]c(Cc3cccc(O)c3)nc2n(C)c1=O	1.4	-4%
CCOC(=O)C1=C(COC(=O)CCS(=O)(=O)c2ccc(C)cc2)NC(=O)NC1C (centres undefined)	-1.3	6%
COc1ccc(C(C#N)=Cc2ccccc2OC)cc1	4.5	4%
COCOCCn1cc(CN2CCS(=O)(=O)N(Cc3ccc(-c4ccc(OC)nc4)cc3)C(C)C2=O)nn1 (centres undefined)	-2.7	1%
Cc1nc(N/N=C/c2cccc([N+](=O)[O-])c2)cc(N2CCCCC2)n1	0.3	-6%
COc1ccc(OCCn2c(C)nc3ccccc32)cc1	-1.0	-1%
CN(C(=O)c1cccc(NC(=O)Cc2ccc(NC(=O)C3CCCN(C(=O)C4CCC4)C3)cc2)c1)C1CCCCC1 (centres undefined)	1.4	-2%
C[C@@H]1ON(C)[C@H]2C[C@H]3c4cc(N5CCN(C)CC5)ccc4CCN3C(=O)[C@@H]12	-0.8	-1%
Cc1cn([C@H]2C[C@H](O)[C@@H](CCC(=O)NCCc3c[nH]c4ccccc34)O2)c(=O)[nH]c1=O	0.7	-1%
C[C@@H]1CN([C@H](C)CO)C(=O)CCCn2nncc2CO[C@@H]1CN(C)C(=O)C1CC1	-2.5&0.0	-10%
CN(Cc1cccc(F)c1)C(=O)C1CC(=O)N(Cc2ccco2)C1 (centres undefined)	0.1	1%
O=C(CCc1ccccc1)NC1CCS(=O)(=O)C1 (centres undefined)	-37	-1%
CCN1C(=O)[C@H]2[C@@H](c3ccc(C(F)(F)F)cc3)N[C@]3(CCCN(Cc4ccc(F)cc4)C3=O)[C@H]2C1=O	-0.2	6%
CC[C@H](C)[C@H]1CNC(=O)C(=O)N1CC1CCN(CC2CCC(C)CC2)CC1 (some centres undefined)	-1.9	7%
c1ccc(CN2CCC(CNc3ncnc4ccccc34)C2)cc1 (centres undefined)	-2.0	-1%
COC(=O)C1CC2=C(CC(C)(C)CC2=O)N(c2ccccc2)C1=O (centres undefined)	0.3	3%
O=C1CC[C@@]23CCCN2C(=O)CCCC3C1 (some centres undefined)	1.8	7%
Cc1cc(NCCCCCCCNc2cc(C)nc3cc([N+](=O)[O-])ccc23)c2ccc([N+](=O)[O-])cc2n1	5.7	14%
C[C@H](CO)N1C[C@H](C)[C@H](CN(C)Cc2cccc(C(F)(F)F)c2)OCc2ccccc2-c2c(n(C)c3ccccc23)C1=O	-3.7&-1.4	2%
COc1cccc(C(c2cccc(OC)c2)c2ccccc2C(=O)O)c1	0.5	-9%
O=C(CNS(=O)(=O)c1ccccc1F)NNC(=O)c1ccc(Br)cc1	-1.0	1%
CC1=CC(C)C(=O)N(C)C(C)=C1 (centres undefined)	0.0	-1%
CC(=O)c1ccc(N2CCN(C(=O)CNS(=O)(=O)c3ccc4c(c3)OCCCO4)CC2)c(F)c1	1.6	1%
CC(C(=O)N1CCCCC1)N(C)CC(=O)Nc1ccc(F)c(F)c1F (centres undefined)	4.9	-6%

A different layout for some results above:
MLL AF4-AF9 inh	Vif A3G	structure
-37	-1%	O=C(CCc1ccccc1)NC1CCS(=O)(=O)C1 (centres undefined)
-0.2	6%	CCN1C(=O)[C@H]2[C@@H](c3ccc(C(F)(F)F)cc3)N[C@]3(CCCN(Cc4ccc(F)cc4)C3=O)[C@H]2C1=O
-1.9	7%	CC[C@H](C)[C@H]1CNC(=O)C(=O)N1CC1CCN(CC2CCC(C)CC2)CC1 (some centres undefined)
-2.0	-1%	c1ccc(CN2CCC(CNc3ncnc4ccccc34)C2)cc1 (centres undefined)
0.3	3%	COC(=O)C1CC2=C(CC(C)(C)CC2=O)N(c2ccccc2)C1=O (centres undefined)
1.8	7%	O=C1CC[C@@]23CCCN2C(=O)CCCC3C1 (some centres undefined)
5.7	14%	Cc1cc(NCCCCCCCNc2cc(C)nc3cc([N+](=O)[O-])ccc23)c2ccc([N+](=O)[O-])cc2n1
-3.7&-1.4	2%	C[C@H](CO)N1C[C@H](C)[C@H](CN(C)Cc2cccc(C(F)(F)F)c2)OCc2ccccc2-c2c(n(C)c3ccccc23)C1=O
0.5	-9%	COc1cccc(C(c2cccc(OC)c2)c2ccccc2C(=O)O)c1
-1.0	1%	O=C(CNS(=O)(=O)c1ccccc1F)NNC(=O)c1ccc(Br)cc1
0.0	-1%	CC1=CC(C)C(=O)N(C)C(C)=C1 (centres undefined)
1.6	1%	CC(=O)c1ccc(N2CCN(C(=O)CNS(=O)(=O)c3ccc4c(c3)OCCCO4)CC2)c(F)c1
4.9	-6%	CC(C(=O)N1CCCCC1)N(C)CC(=O)Nc1ccc(F)c(F)c1F (centres undefined)

An excerpt (hit frequency here may not be typical).
